D2 PAM: potentiates the human D2 dopamine receptor allosterically | DiscoveRx D2 beta-arrestin cells, luminescence, 90 min; 100% = 57 uM dopamine signal | 360,000 tested, 0.23% active | P14416 | potentiation, % (no concentration beside the values); active = potentiation of 50% or more; inconclusive = 30% to 50%; inactive = 30% or less;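 note: compound concentration not given in the record; tested on top of an EC20 dose of dopamine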
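PathHunter beta-arrestin assay in DiscoveRx D2 cells. Compounds were added with an EC20 of dopamine (50 nM final) for 90 min at 37 deg C. Luminescence was read 1 h after detection reagent, with 57 uM dopamine as the EC100 control.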
TRPML1 agonist: human mucolipin-1 channel agonism | TRPML1-expressing cells, Ca2+ dye fluorescence, FDSS; host cell line not named in the record; reference of the full effect not given here | activation, % (no concentration beside the values) | 410,000 tested, 0.12% active | AID 624414; in the data active = activation above about 50%; inconclusive = about 30% to 50%; inactive = below about 30%; note: 0% is about no effect; the text of the record puts the active cut at 80%
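Agonist activity was taken from a 110 s kinetic Ca2+ dye read on the FDSS after pinning compounds onto TRPML1-DL cells. The cells were seeded at 1,500/well with Tet inducer, incubated about 16 h, then dye-loaded at room temperature.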
Six1-Eya2 inh: Six1/Eya2 interaction inhibition | Q15475+O00167 | AlphaScreen GST-Six1/His-Eya2 binding, biochemical; active compounds read low; control for the full effect not named in the record | activity change, % (concentration not given with the values) | 360,000 tested, 0.56% active | AID 651725; in the data active = activity change below about -65%; inconclusive = about -30% to -65%; inactive = above about -30%; note: % is set by controls: 0 for no effect and ±100 for the full control effect
Target sequence (O00167 whole entry, looked up): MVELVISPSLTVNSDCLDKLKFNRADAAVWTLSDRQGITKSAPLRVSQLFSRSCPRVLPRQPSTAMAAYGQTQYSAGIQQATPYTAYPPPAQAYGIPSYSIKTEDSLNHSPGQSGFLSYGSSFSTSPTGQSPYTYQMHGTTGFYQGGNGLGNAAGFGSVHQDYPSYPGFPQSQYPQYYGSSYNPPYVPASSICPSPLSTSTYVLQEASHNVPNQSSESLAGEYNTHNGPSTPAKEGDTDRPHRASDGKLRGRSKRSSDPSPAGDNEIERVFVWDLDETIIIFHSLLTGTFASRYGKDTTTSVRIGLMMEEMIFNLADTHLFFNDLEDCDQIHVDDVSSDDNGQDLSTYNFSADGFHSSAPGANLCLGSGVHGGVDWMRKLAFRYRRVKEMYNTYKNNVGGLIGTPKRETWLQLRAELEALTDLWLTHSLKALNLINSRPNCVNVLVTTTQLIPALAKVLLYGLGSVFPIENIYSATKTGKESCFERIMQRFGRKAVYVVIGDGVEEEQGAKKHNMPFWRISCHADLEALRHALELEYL
Target sequence (Q15475 whole entry, looked up): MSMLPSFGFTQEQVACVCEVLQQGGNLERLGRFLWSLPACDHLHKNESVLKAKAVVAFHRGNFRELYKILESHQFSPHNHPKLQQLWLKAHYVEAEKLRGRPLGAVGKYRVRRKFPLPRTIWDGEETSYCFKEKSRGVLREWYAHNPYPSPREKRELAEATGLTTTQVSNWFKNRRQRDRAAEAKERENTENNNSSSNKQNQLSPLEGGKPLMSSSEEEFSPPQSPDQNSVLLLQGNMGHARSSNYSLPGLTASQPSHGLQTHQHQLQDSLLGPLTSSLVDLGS
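Compounds are tested against tagged Six1 and Eya2 proteins bridged by glutathione donor and nickel acceptor beads; after a one-hour incubation at 37 °C without light, AlphaScreen emission is recorded.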
PINK1 modulator: PINK1 expression modulation | PINK1 immunofluorescence, high-content cytometry, 24 h | Potency, µM (titrated, usually from 76.6 µM), inactives show at the top dose activation (PINK1 increase), most hits filed as activators | 410,000 tested, 0.2% active; active = well fitted activation curve with a large enough effect; inconclusive = small, poorly fitted or top-dose-only effect; inactive = flat fitted curve, though single readings scatter; cell line not stated here;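 note: potency is the fitted concentration of half-maximal effect; % of control where 0% means no effect; nearly all actives have a fitted effect of over 65% in size; a mitochondrial uncoupler was the plate control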
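PINK1 protein level read as immunofluorescence by microplate cytometer in a fixed, stained stable cell line after 24 h exposure to five compound concentrations, with CCCP as control.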
CtBP-E1A blk: CtBP/E1A binding inhibition. AlphaScreen GST-E1A/His-CtBP binding, 1536-well; active compounds read low; control for the full effect not named in the record. activity change, % (test concentration not listed). 340,000 tested, 0.49% active. AID 651724; in the data active means activity change below about -65%; inconclusive means about -30% to -65%; inactive means above about -30%; note: % is set by controls: 0 for no effect and ±100 for the full control effect
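Protein mix (5X: 125 nM each GST-E1A, His-CtBP) was incubated with pinned compound 2 h at 37 deg C in dark, in 50 mM Tris pH 8.0 buffer with 300 mM NaCl. Glutathione donor and nickel acceptor beads followed; AlphaScreen signal read after 1 h.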
D2 agonist: agonists of human D2 dopamine receptor (beta-arrestin); 360,000 tested, 0.084% active; P14416; activation, % (no concentration beside the values); AID 624465; DiscoveRx PathHunter D2 beta-arrestin, luminescence, 90 min; 100% = 57 uM dopamine signal; in the data active = activation above about 40%; inconclusive = about 15% to 40%; inactive = below about 15%; note: compound concentration not given in the record; the text of the record calls up to 30% inactive
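Agonist mode: compounds alone added to overnight-plated D2 PathHunter cells for 90 min at 37 C, with 57 uM final dopamine (EC100) defining full response. Beta-arrestin recruitment detected by chemiluminescent reagent, read after 1 h at ambient temperature.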
Starred values were filed as active, the others as inactive; ? = inconclusive; / = not tested or not shown; & = joins results of further samples; [ ] = another dose, or the depositor's remark. Hits appear at their usual frequency, and some 1.3% of all compounds hit somewhere here.

SMILES	D2 PAM	TRPML1 agonist	Six1-Eya2 inh	PINK1 modulator	CtBP-E1A blk	D2 agonist
C/C=C/c1ccc(OCCOc2cccc3cccnc23)c(OC)c1	-20	-0.1	1	0.3%	-3	-1.4
CCc1ccccc1NC(=O)Cn1c(=O)n(-c2ccc(CC(=O)NCC3CCCO3)cc2)c(=O)c2ccccc21 (stereo not given)	-7	-0.1&0.6	5	0.6%&0.5%	-8	-2.2
COc1ccc(CN(C)CC(=O)Nc2ccc(Cl)cc2C(F)(F)F)c(OC)c1	-21	0.8	13	?	9	-1.5
Cc1c(C(=O)NNc2cc(=O)n(C)c(=O)n2C)cccc1[N+](=O)[O-]	-12	-0.1	-13	2.2%	-17	4.3
Cc1ccc(S(=O)(=O)N2CCC(C(=O)N(C)C3CCS(=O)(=O)C3)CC2)cc1 (stereo not given)	-1	-1.0	6	-1.3%	4	-0.5
COc1ccc(C(=O)N/N=C/c2ccc(N(C)c3ccccc3)cc2)cc1	-17	2.3	10	0.6%	15	-1.3
COC(=O)C1CCN(C(=O)C23CCC(C)(C(=O)O2)C3(C)C)CC1 (stereo not given)	2	0.9	15	-1.7%	-2	-4.3
CC(C)[C@H](NC(=O)C1CCN(C(=O)[C@@H]2CCCN2)CC1)C(=O)NCc1ccc(F)cc1	-30	/	5	-0.4%	1	-6.5
CN(C)CCNC(=O)c1cccc2ccc(-c3ccc(-c4ccccc4)cc3)nc12	-33	-0.1	-21	-6.7%	-16	-2.4
CCC1CCCCN1Cc1cc(OC)c(O)c([N+](=O)[O-])c1 (stereo not given)	-13	2.4	1	3.4%[38.3 µM]	3	-2.3
Cc1ccccc1CSc1nc2[nH]ncc2c(=O)[nH]1	-7	0.5	2	2.7%	/	-10
COC(=O)c1ccc(NC(=O)CCN2CCCCC2)cc1	-4&-10	0.0&-0.3	-3&6	0.5%&0.1%	-1&0	-0.9&-2.5
O=C(NCCCN1CCOCC1)c1cc2nc(-c3ccco3)cc(C(F)(F)F)n2n1	-7	-0.7	0	3.1%	15	-3.6
CCN(CC)S(=O)(=O)c1cccc(-c2nnc(SCC(N)=O)n2CCc2ccccc2)c1	-6	1.3	-2	-1.5%	-3	-0.8
CC(C)n1nc(C(=O)Nc2nc3ccc(S(C)(=O)=O)cc3s2)c2ccccc2c1=O	2	0.9	3	13%[38.3 µM]	3	-0.4
CCO[C@H]1OC(C(=O)O)=C[C@@H](C)[C@@H]1CCCO	-19	-0.4	6	-0.8%	-1	-0.2
CCN(CC)CCOc1cc2c(nn1)Oc1ccccc1N2C	-23	0.0	0	-7.0%[38.3 µM]	-9	-0.3
O=C(CCl)N(C/C=C/c1ccccc1)c1ccc2c(c1)OCCO2	8	2.5	-3	-1.3%	-2	7.7
CCSc1nc2c(c(=O)n(C)c(=O)n2C)n1Cc1ccc(Cl)cc1	1	0.4	3	0.8%	3	-1.1
O=C(CCC(=O)OCC(=O)c1ccc([N+](=O)[O-])cc1)Nc1ccccc1Cl	-14	7.3	5	0.7%	2	4.4
O=C(Nc1cccc(-c2nc3ccccc3c(=O)o2)c1)c1ccccc1	11	2.7	-24	-1.3%	-9	-0.2
COc1cccc(C2=Nn3c(nnc3-c3ccccc3O)SC2)c1	-11	-0.5	-16	17%	-19	-2.2
OCc1ccccc1O[C@@H]1O[C@H](CO)[C@@H](O)[C@H](O)[C@H]1O	-33	/	8	-0.3%	5	-4.4
CC(=O)Nc1cccc(NC(=O)c2cc(Cl)ccc2Cl)c1	11	-0.4	12	1.3%	-13	2.1
O=C(OCc1cc(Cl)ccc1OC(F)F)c1cccnc1	-12	1.0	10	0.0%	3	-5.3
Cc1cc2c(ncn2C)c(NS(=O)(=O)c2cc(Cl)ccc2Cl)c1C	-19	0.7	5	1.6%	0	-3.2
N#Cc1c(-c2ccc(Cl)cc2)n(O)c2ccccc12	-9	-0.3	6	35µM*	-3	0.1
CSc1sc(-c2nnc(SCC(=O)Nc3ccc(Cl)cc3)n2C)c2c1C=CCC2	-9	1.9	3	7.5%	3	-5.0
O=C(N/N=C/c1cccs1)c1cccc(S(=O)(=O)Nc2ccc(Cl)cc2)c1	1	-0.5	-4	8.4%	1	6.3
COc1ccccc1N(C)S(=O)(=O)c1ccc(C)c(C(=O)NC(C)c2ccccn2)c1 (stereo not given)	-25	1.6	1	-0.4%	-3	0.1
N#Cc1ccccc1OCC(=O)NC1CCCCCC1	-16	-0.4	-1	0.8%	-22	-0.6
Cc1ccc(S(=O)(=O)NC(=O)C2(C)CCN2C(=O)c2ccc(C(F)(F)F)nc2C)cc1 (stereo not given)	1	0.4	1	-0.4%	3	-1.7
Cn1cc(S(=O)(=O)c2ccccc2)n(C)c1=O	-5	-1.0	6	-0.2%	9	-5.6
COc1ccc(C2(C)NC(=O)N(CC(=O)Nc3ccc(Br)c(C)c3)C2=O)cc1OC (stereo not given)	-13	1.0	0	0.9%	-3	2.7
CC(C)(C)C(=O)NC(=S)Nc1ccccn1	-6	-0.4	-7	1.0%	5	-3.8
O=C(Nc1ccc(C(=O)N2CCCCC2)cc1)c1ccccc1Cl	-9	0.2	0	1.1%	6	-0.8
CCCCC(=O)OC1CCC2C3CCc4cc(O)ccc4C3CCC12C (stereo not given)	-14	-0.2	0	-1.1%	-25	-2.6
CC(=O)Nc1ccccc1C(=O)C(=O)Nc1ccc(C)c(F)c1	11	-0.6	-6	15%	16	0.7
CC(=O)N1CCN(c2ccc(NC(=O)c3cccc(F)c3)cc2)CC1	-20	-0.2	8	-0.9%	-2	-1.4
Cc1cccc(C)c1N1CCN(C(=O)c2ccc3c(c2)OCO3)CC1	-5	1.2	4	-0.5%	-5	0.6
c1ccc(Nc2nnc(-c3cccc4ccccc34)o2)cc1	-8	1.1	9	8.3%	10	2.6
COC(=O)c1sccc1NC(=O)C1CCCCC1C(=O)O (stereo not given)	-6	1.2	9	-0.8%	/	0.0
COC(=O)c1ccc(NC(=O)CN2C(=O)C3C4C=CC(C4)C3C2=O)cc1 (stereo not given)	7	0.1	1	6.7%[38.3 µM]	9	-1.6
O=C(/C=C/c1ccccc1)Nn1cnc2ccccc2c1=O	-10	2.3	-8	-1.0%	?	3.4
CCC(CC)C(=O)Nc1cccc(C(=O)NCCc2ccc(S(N)(=O)=O)cc2)c1	1	-0.2	7	-0.6%[38.3 µM]	0	1.5
CC(c1ccco1)N(C(=O)c1cccc(Br)c1)c1ccccn1 (stereo not given)	-10	-1.4	-23	3.3%	0	0.0
COc1ccc(/C(C)=N/Nc2ccc(F)cc2F)c(O)c1	11	-0.5	1	2.2%	-73*	6.6
Cc1nc2ccccc2nc1OCc1cccc(Cl)c1	-3	-0.3	5	0.3%	10	-3.7

The closing five records of the part before are carried over, then new ones follow.
SMILES	D2 PAM	TRPML1 agonist	Six1-Eya2 inh	PINK1 modulator	CtBP-E1A blk	D2 agonist
O=C(/C=C/c1ccccc1)Nn1cnc2ccccc2c1=O	-10	2.3	-8	-1.0%	?	3.4
CCC(CC)C(=O)Nc1cccc(C(=O)NCCc2ccc(S(N)(=O)=O)cc2)c1	1	-0.2	7	-0.6%[38.3 µM]	0	1.5
CC(c1ccco1)N(C(=O)c1cccc(Br)c1)c1ccccn1 (stereo not given)	-10	-1.4	-23	3.3%	0	0.0
COc1ccc(/C(C)=N/Nc2ccc(F)cc2F)c(O)c1	11	-0.5	1	2.2%	-73*	6.6
Cc1nc2ccccc2nc1OCc1cccc(Cl)c1	-3	-0.3	5	0.3%	10	-3.7
N#Cc1nccc2ccc(OCc3ccc(Br)cc3)cc12	8	-0.6	0	1.2%	12	0.5
COc1ccc(S(=O)(=O)N2CCOCC2)cc1NC(=O)CNC(=O)c1cccs1	3	0.1	0	0.6%	6	-3.3
CCOC(=O)c1[nH]c(C)c(C(=O)NCCCN2CCOCC2)c1C	-10	-0.2	2	-0.1%[38.3 µM]	13	-1.2
CCC(=O)NC(c1cccc([N+](=O)[O-])c1)c1c(OC(C)=O)ccc2ccccc12 (stereo not given)	-19	-1.1	-10	1.6%	-3	-7.6
CC(=O)c1nc(N2C(=O)CC(Cc3cc(C)cc(C)c3)C2=O)sc1C (stereo not given)	-2	-0.5	2	-1.7%	1	-5.3
Cc1cc(NC(=O)CSc2nnc(-c3ccccc3)n2C)no1	-6	1.5	1	-1.0%	-3	-0.7
C=CCNc1cc(C)oc(=O)c1C(=O)CC	-8	0.2	4	0.0%	2	-5.0
CC1CC(C)(C)CC2(C1)NC(=O)N(CC(=O)N1CCN(S(=O)(=O)c3cccc(Cl)c3Cl)CC1)C2=O (stereo not given)	-2	2.9	-3	-0.1%	1	8.9
CCCN(C(=O)c1ccccc1N)c1c(C)n(C)n(-c2ccccc2)c1=O	-16	0.9	1	-2.4%	7	-2.8
F[B-](F)(F)c1cncc2ccccc12	/	0.3	3	-0.9%	-20	-0.8
Cc1ccccc1C(=O)Nc1ccnn1C1CCN(C(=O)c2ccoc2)CC1	-2	-0.1	2	-2.5%	3	-1.2
COc1ccc(NC(=O)c2sc(=O)n(Cc3ccc(S(=O)(=O)N(C)C)cc3)c2C)cc1	-1	-1.1	-1	-0.6%	0	6.1
C(=N\Nc1ccc2ccccc2n1)/c1ccc2c(c1)OCCO2	-15	2.4	-7	1.6%	-8	-4.0
COc1ccc(N2CCN(CC(O)COc3cc(C)ccc3C)CC2)cc1 (stereo not given)	-11	1.1	-17	9.3%	-11	1.7
COc1cccc(OCCn2cc(C(=O)c3ccco3)c3ccccc32)c1	-3	6.5	-15	0.8%[38.3 µM]	-5	-4.2
O=C(NCC1CCCO1)c1ccc(CS(=O)(=O)c2c(Cl)cccc2Cl)o1 (stereo not given)	-1	2.0	3	-3.2%	4	-3.5
O=C(O)c1ccc(-n2cccc2/C=C2/NC(=O)N(c3ccccc3)C2=O)cc1	-11	0.3	?	0.8%	0	-4.4
O=[N+]([O-])c1ccc(S(=O)(=O)NCC2CCCO2)cc1 (stereo not given)	?	0.1	11	4.7%	1	9.4
CNc1oc(-c2ccccc2)nc1C#N	-5	0.2	-3	0.3%	-4	0.9
CCOC(=O)N1CCN(C(=O)C[C@@H]2C[C@@]3(C(=O)OCC)CCC=C3N(CCC3=CCCCC3)C2=O)CC1	/	-0.7	1	-0.7%	2	/
CCOc1ccc(CN2CCN(Cc3cccn3-c3nccs3)CC2CCO)cc1 (stereo not given)	-9	0.3	-10	23%	-16	1.1
COc1ccc(C(=O)O)cc1NC(=S)NC(=O)c1ccc(-c2ccc(Cl)cc2)o1	-6	-0.3	-9	-1.5%	-3	-2.6
CCCCNC(=O)c1cc2cc(CC)ccc2[nH]1	-8	0.0	12	2.9%	-15	-2.6
CN(Cc1ccccc1F)C(=O)c1ccccc1Sc1ccccc1C#N	4	0.0	6	-1.1%	6	-1.8
CCC(C)(C(=O)NC1CCCCC1)N(Cc1cccs1)C(=O)CC1NC(=O)NC1=O (stereo not given)	-13	0.8	11	-0.7%	3	-3.0

Bioassay records from PubChem.
